Screens as filed in PubChem BioAssay.
gsp ag: qHTS for Agonist of gsp, the Etiologic Mutation Responsible for Fibrous Dysplasia/McCune-Albright Syndrome: qHTS; gsp mutant cells, cAMP HTRF, 30 min; control for the full effect not named in the record; Potency, µM (series often up to 76.9 µM), for inactives: at the top dose activation (cAMP increase), actives largely listed as activators; hit rate 0.13% among 340,000; active = well fitted activation curve with a large enough effect; inconclusive = small, poorly fitted or top-dose-only effect, or another doubt; inactive = no such curve, though single readings can be large or run the other way; cell line not stated here;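 further: phosphodiesterase inhibitor Ro 20-1724 added with compounds to block cAMP breakdown; potency means the concentration at half of the fitted maximal effect; nearly all actives have a fitted effect of over 60% in size; about a fifth of the inactives were tested at one dose only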
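Cells in DMEM/10% FBS with G418 were pretreated with compounds in DMSO plus […] (300 uM stock) for 30 min at 37C. cAMP was measured by HTRF (cAMP-d2 plus anti-cAMP antibody-K) after 30 min at room temperature.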
TRPV1 potentiator: HTS Assay for Compounds that Act as Potentiators of the Vanilloid Receptor 1. TRPV1-expressing cells, Fluo-8 calcium influx, capsaicin EC20 potentiation; host cell line not named in the record; control for the full effect not named in the record. potentiation, % at 8.33 µM. hit rate 0.02% among 320,000. AID 540277, 2011; active means potentiation above 80%; inconclusive means 30% to 80%; inactive means below 30%; further: 0% is about no effect
Target sequence (Q8NER1 whole entry, looked up): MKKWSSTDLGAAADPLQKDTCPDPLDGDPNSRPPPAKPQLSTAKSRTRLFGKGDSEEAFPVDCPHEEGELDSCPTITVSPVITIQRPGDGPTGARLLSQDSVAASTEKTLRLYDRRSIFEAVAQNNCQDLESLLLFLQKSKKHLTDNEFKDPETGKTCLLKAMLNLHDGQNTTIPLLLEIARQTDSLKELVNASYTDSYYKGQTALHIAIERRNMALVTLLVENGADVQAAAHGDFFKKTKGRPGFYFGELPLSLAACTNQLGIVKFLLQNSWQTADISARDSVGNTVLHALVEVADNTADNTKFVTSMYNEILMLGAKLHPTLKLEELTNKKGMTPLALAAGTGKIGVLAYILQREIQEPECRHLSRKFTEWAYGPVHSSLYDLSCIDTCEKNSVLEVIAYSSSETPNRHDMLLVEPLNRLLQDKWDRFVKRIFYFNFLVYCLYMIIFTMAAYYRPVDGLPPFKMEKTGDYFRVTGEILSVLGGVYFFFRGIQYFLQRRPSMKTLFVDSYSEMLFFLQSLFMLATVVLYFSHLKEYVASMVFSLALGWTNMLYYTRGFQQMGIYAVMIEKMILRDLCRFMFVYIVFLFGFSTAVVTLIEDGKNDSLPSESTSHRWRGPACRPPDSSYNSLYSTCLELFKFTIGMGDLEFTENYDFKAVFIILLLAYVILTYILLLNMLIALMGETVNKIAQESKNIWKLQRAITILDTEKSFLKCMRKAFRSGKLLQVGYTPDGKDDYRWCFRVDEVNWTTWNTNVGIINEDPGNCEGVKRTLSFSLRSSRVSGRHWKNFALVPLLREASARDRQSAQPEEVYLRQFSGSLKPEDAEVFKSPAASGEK
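TRPV1-expressing cells were cultured overnight at 35.5C and loaded with Fluo-8 calcium dye for 40 to 90 min at room temperature. After a 10 s baseline, compound was added and calcium influx was read kinetically for 3 min (ex 480/em 520 nm).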
ClpP mod: qHTS Assay for Activators of ClpP | purified B. subtilis ClpP, FRET peptide cleavage, 20 min | hit rate 1.9% among 340,000 | Potency, µM (top dose mostly 57.5 µM), for the others: at the top dose activity change, negative = active; active = well fitted falling curve with a large enough effect; inconclusive = small, poorly fitted or top-dose-only effect; inactive = no such curve, though single readings can be large or run the other way; further: potency means the concentration at half of the fitted maximal effect; the source files actives as falling curves though it sought activators and does not explain the sign; nearly all actives have a fitted effect of over 65% in size; many hits overshoot -100%
Target sequence (P80244 whole entry, looked up): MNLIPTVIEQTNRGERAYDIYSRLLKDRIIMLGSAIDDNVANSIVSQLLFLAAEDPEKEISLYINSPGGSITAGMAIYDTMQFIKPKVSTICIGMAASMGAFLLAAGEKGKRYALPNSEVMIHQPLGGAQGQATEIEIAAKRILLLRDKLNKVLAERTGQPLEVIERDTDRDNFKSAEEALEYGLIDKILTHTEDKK
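Purified B. subtilis ClpP, 10 microg/mL final in Tris/HCl pH8 with KCl, BSA, glycerol and Tween-20, cleaved an Abz/nitrotyrosine-quenched decapeptide. Fluorescence (ex 320, em 430) was read at 0 and 20 min at room temperature. Delta was normalized to 5.8 microM ADEP and DMSO/no-enzyme controls.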
Menin MLL FP FL: qHTS Assay for Inhibitors Targeting the Menin-MLL Interaction in MLL Related Leukemias: Competition With Fluorescein Labeled MLL-derived Peptide; FP activity change, % at 61.4 µM; Fluorescence polarization, fluorescein-MLL peptide displacement from menin; 290,000 tested, under 10 active; inconclusive = falling polarisation curve, or a change in total fluorescence; inactive = total fluorescence flat and polarisation flat or rising; no compound was filed as active; the % refers to the polarisation; negative = inhibition;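 further: % of control where 0% means no effect; inhibitors lower the polarisation; unlabelled MLL peptide was the positive control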
gsp antag: qHTS for Antagonists of gsp, the Etiologic Mutation Responsible for Fibrous Dysplasia/McCune-Albright Syndrome: qHTS. Potency, µM (doses to about 76.9 µM), inactives show at the top dose activity change, negative = inhibition, hits mostly inhibitors. gsp-mutant cells, cAMP HTRF, 30 min; control for the full effect not named in the record. hit rate 0.4% among 340,000; active = falling curve of any shape with a large fitted effect; inconclusive = falling curve, mostly with a smaller effect; inactive = flat or rising curve; cell line not stated here;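 further: intracellular cAMP measured with PDE inhibitor Ro 20-1724 present during compound exposure; potency means the concentration at half of the fitted maximal effect; on the % scale 0 is the no-effect control and ±100 the full control effect; nearly all actives have a fitted effect of over 65% in size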
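HTRF cAMP read-out (cAMP-d2 plus anti-cAMP antibody-K in lysis buffer, 30 min RT). Before lysis, cells are exposed to compounds with […] for 30 min at 37C in DPBS containing Ca/Mg, BSA and Tween 20.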
Sfp inh: qHTS Assay for Inhibitors of Bacillus subtilis Sfp phosphopantetheinyl transferase (PPTase). Biochemical Sfp PPTase activity, qHTS. Potency, µM, for inactives: max response, negative = inhibition, most hits filed as inhibitors. AID 1490, 2009. 4'-phosphopantetheinyl transferase ffp (Bacillus subtilis), Q9F4F7. hit rate 3.5% among 310,000; active means well fitted inhibition curve with a large enough effect; inconclusive means small, poorly fitted or top-dose-only effect, or another doubt; inactive means no such curve, though single readings can be large or run the other way;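 further: the enzyme is Sfp with the accession as filed and its product quenches rhodamine fluorescence; potency means the concentration at half of the fitted maximal effect; 0% = enzyme reaction without inhibitor and -100% = no enzyme wells; top concentration of the series not given in the record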
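With Hepes-Na pH 7.6 buffer containing 10 mM MgCl2, Sfp (15 nM) modified BHQ-2-YbbR (12.5 uM) using rhodamine-CoA (5 uM). Two reads 30 minutes apart at 525/598 nm yielded each well's rate.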
TRPML1 blocker: qHTS for Inhibitors of the Human Mucolipin Transient Receptor Potential 1 (TRPML1). Mucolipin-1 (Homo sapiens), Q9GZU1. AID 624415, 2012. TRPML1-inducible cells, Ca2+ dye fluorescence, FDSS; stronger effect = lower value; inhibition of EC80 agonist-evoked calcium signal. hit rate 0.02% among 390,000. activity change, negative = inhibition, % (concentration not given with the values); in the data active means activity change below about -50%; inconclusive means about -30% to -50%; inactive means above about -30%;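 further: stimulus is agonist 54-4 at its EC80 concentration; on the % scale 0 is the no-effect control and ±100 the full control effect; compound concentration not given in the record; the text of the record puts the active cut at -80%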
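Calcium fluorescence in TRPML1-DL cells induced overnight with Tet: a 110 s read after compound pin addition, then a 110 s antagonist read after challenge with 54-4 at 4 uM final (EC80).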
The depositor's hits bear a star; ? = inconclusive; . = no result given; [ ] = remark or other dose.

SMILES | gsp ag | TRPV1 potentiator | ClpP mod | Menin MLL FP FL | gsp antag | Sfp inh | TRPML1 blocker
CCc1cccc(C)c1NC(=O)COC(=O)C1CC(=O)N(CCc2ccc(OC)c(OC)c2)C1 (stereo not given) | 2% | -26 | 0.6% | . | -9% | . | 10
CCOC(=O)C1CCCN(C(=O)c2cnn3c(C(F)F)cc(-c4ccc(C)cc4)nc23)C1 (stereo not given) | ? | -14 | -17% | 0.9 | 1% | -23% | 3
CCOC(=O)C(CC)Sc1nc2c(c(=O)[nH]c(=O)n2C)n1CCc1ccccc1 (stereo not given) | 27% | -12 | -1.3% | -1.6 | -16% | ? | 5
COc1ccc(N(CC(=O)NC2CCS(=O)(=O)C2)S(=O)(=O)c2cc(C)ccc2C)cc1 (stereo not given) | 16%[15.4 µM] | . | -1.2% | . | 0% | . | 3
O=C(CCC(=O)NC1CCCCC1)N/N=C/c1ccncc1 | 5% | -1 | -0.6% | -1.7 | 5% | 14% | 4
CCN(CC)c1ccc(/C=N/N2CCN(c3ccccc3OC)CC2)cc1 | -10% | 1 | -7.5% | -0.1 | 1% | -22% | -2
Cc1cc(C)n(-c2nc3ccccc3c(=O)n2OCC#N)n1 | ? | -31 | . | -3.9 | 9% | 8% | -10
C=CCNC(=O)/C(C#N)=C/c1cc(Br)ccc1OC | 3% | -10 | . | 0.2 | -4% | 20% | 10
COc1ccc2c(c1)C=C([C@@H]1C[C@H]3CN(c4ccccc4)C(=O)[C@]34CCCN14)CO2 | -19%[15.4 µM] | 0 | . | 0.0 | -10% | -4% | 1
CC(=O)O[C@H]1CC[C@]2(C)[C@H]3CC=C4[C@@H]5[C@@H](C)[C@H](C)CC[C@]5(C(=O)O)CC[C@@]4(C)[C@]3(C)CC[C@H]2C1(C)C | . | -2 | . | 1.3 | . | 10% | .
CCOc1ccc(S(=O)(=O)N2CCC(C(=O)NCC3CCCO3)CC2)cc1 (stereo not given) | -30% | 5 | 0.4% | -2.8 | -1% | 6% | -4
COc1ccc(-c2nc3ccccc3c(=O)n2O)cc1 | 9% | -1 | -3.5% | -2.2 | -3% | -2% | -13
CCNc1nc(ON=C(C)C)nc(N(C)C)n1 | 13% | 7 | 4.7% | -5.3 | 19% | 2% | 21
CC1CCN(S(=O)(=O)c2ccc([N+](=O)[O-])cc2)CC1 | -54%[inhibitor] | 20 | . | 0.3 | 4% | 11% | 33
C=CCOc1ccc(C[C@H](N)C(=O)NC[C@H]2O[C@@H](n3cc(C)c(=O)[nH]c3=O)C[C@@H]2O)cc1 | -42%[inhibitor] | . | 1.2% | . | . | . | -5
O=C(NNC(=O)c1ccc(Cl)nc1)c1ccncc1 | 3% | -14 | -2.2% | . | -13% | . | 6
COc1cccc(N2C(=O)C3CCCN3C2=S)c1 (stereo not given) | 1% | 7 | . | -6.9 | 8% | -19% | ?
CCOC(=O)CC(NC(=O)c1ccco1)c1ccccc1Cl (stereo not given) | -16% | 0 | -2.3% | 2.4 | -6% | 5% | -8
CN(C(=O)CCc1nc(-c2ccccc2F)no1)c1ccccc1 | 3% | -11 | -1.3% | -0.5 | 13% | 15% | .
CC(=O)N1CCc2cc(S(=O)(=O)CCC(=O)Nc3cccc(F)c3)ccc21 | ? | 16 | 0.6% | 1.8 | -3% | 8% | 26
CCCn1c(SCC(=O)c2ccc3c(c2)OCCO3)nnc1C(C)C | -2% | -13 | -2.1% | 1.8 | -16% | 79µM* | 30
CC(Nc1nc(-c2ccc(Cl)cc2)cs1)c1nc2cc(Cl)c(N3CCCCC3)cc2n1CCOCCO (stereo not given) | 14% | . | -7.9% | . | -4% | . | 9
CCCCNC(=S)N1CCC(Cc2ccccc2)CC1 | 9% | -10 | 1.4% | 0.3 | 5% | 7% | 16
Cc1ccc(C2CC2C(=O)NNC(=S)Nc2ccc(Cl)cc2)cc1 (stereo not given) | 2% | -5 | -2.3% | 0.5 | -21% | -5% | -10
O=S(=O)(c1ccc(Cl)s1)N1CCN(CCc2ccccc2)CC1 | -2%[15.4 µM] | -4 | -2.4% | . | ? | 5% | -15
O=C(NNC(=O)c1ccccc1O)c1ccc(-c2ccc([N+](=O)[O-])cc2)o1 | 13%[15.4 µM] | -4 | . | . | ? | . | -4
O=C(CC1Oc2ccccc2NC1=O)NCCCN1CCN(C2CCCCC2)CC1 (stereo not given) | -92%[inhibitor] | . | 2.4% | . | 2% | . | 13
NC12CC3CC(C1)CC(CC(=O)O)(C3)C2 | 7%[15.4 µM] | -3 | . | -4.8 | 8% | 16% | 4
Cc1ccc(NC(=O)/C(=C\c2ccco2)NC(=O)c2ccco2)cc1 | 1% | 16 | . | 13 | -2% | -20% | -3
O=C(O)COc1ccc(NC(=O)c2cccs2)cc1 | -3% | . | 1.2% | . | 8% | . | 7
O=C(CCSc1nnnn1-c1ccccc1)N1CCOCC1 | -48%[inhibitor] | 21 | 0.7% | -1.5 | -10% | 31%[activator] | 1
O=[n+]1cc(-c2cc3ccccc3o2)n([O-])c2c1CCCC2 | 3% | -1 | -9.0% | 2.3 | ? | 17% | 0
Cc1cccc(C)c1NC(=O)CSc1ccc([N+](=O)[O-])cn1 | -38%[inhibitor] | -9 | -1.2% | . | -8% | 8% | 52
COc1ccccc1NC(=O)CCC(=O)N(Cc1ccc(OC)c(OC)c1)c1nccs1 | -6%[15.4 µM] | 3 | . | -1.6 | 0% | -3% | 11
COc1cc(C2=NOC(C(=O)NCc3cccnc3)C2)cc(OC)c1OC (stereo not given) | -5% | -5 | . | 1.6 | 10% | 3% | -23
NC(=O)C1CCN(C(=O)CNC(=O)c2ccc(F)cc2)CC1 | -4%[15.4 µM] | . | 2.3% | . | 12% | . | -5
O=C(NCc1ccccc1Cl)c1ccc(NC2=NC3CS(=O)(=O)CC3S2)cc1 (stereo not given) | ? | ? | 4.5% | 3.1 | -4% | -6% | -11
Cc1ccc(C(=O)Nc2ccc3ccccc3n2)cc1 | ? | 3 | . | -0.1 | -7% | -4% | 12
COc1cc(C=NO)nc(-c2ccccn2)c1 | 3% | . | 0.2% | . | 8% | . | -11
O=C(N/N=C/C=C/c1ccccc1)NC1CCCCC1 | 13% | 3 | -1.6% | -2.8 | 0% | -11% | 30
CCn1c(SCC(=O)NC2CC2)nnc1-c1cccs1 | -2% | 8 | -2.0% | . | 19% | . | 1
COc1ccccc1NC(=O)CCCC(=O)OCC(F)(F)C(F)F | -56%[inhibitor] | 6 | -2.0% | -2.2 | 3% | 7% | -5
Cn1c(N)c(C(=O)COC(=O)Cc2ccccc2F)c(=O)n(C)c1=O | ? | . | . | . | 9% | . | -2
COc1cc2c(cc1NC(=O)COc1ccccc1OC)oc1ccccc12 | 18% | -9 | 25µM* | -1.8 | 11% | -17% | 47
CCOC(=O)CSc1nc(-c2ccccc2)nc2c1oc1ccccc12 | 8% | -4 | -26% | 0.2 | -3% | -5% | -8
COc1ccc(C=C2SC(=O)NC2=O)cc1OC | -8% | . | . | . | 9% | . | 5
Cc1cccc(Cn2c(SCc3ccc(C(=O)N4CCCCCC4)cc3)nc3ccncc32)c1 | . | -11 | 1.1% | . | . | . | -13
Cc1ccc(C(=O)NC2=NCCS2)cc1Cl | -5%[15.4 µM] | -4 | -0.6% | 5.2 | 5% | 23% | 41

Reprinted from the entries so far (three entries):
SMILES | gsp ag | TRPV1 potentiator | ClpP mod | Menin MLL FP FL | gsp antag | Sfp inh | TRPML1 blocker
COc1ccc(C=C2SC(=O)NC2=O)cc1OC | -8% | . | . | . | 9% | . | 5
Cc1cccc(Cn2c(SCc3ccc(C(=O)N4CCCCCC4)cc3)nc3ccncc32)c1 | . | -11 | 1.1% | . | . | . | -13
Cc1ccc(C(=O)NC2=NCCS2)cc1Cl | -5%[15.4 µM] | -4 | -0.6% | 5.2 | 5% | 23% | 41

Further compounds:
SMILES | gsp ag | TRPV1 potentiator | ClpP mod | Menin MLL FP FL | gsp antag | Sfp inh | TRPML1 blocker
CN(CC1CCOCC1)C(=O)CC1C(=O)NCCN1Cc1cccc(C(F)(F)F)c1 (stereo not given) | -42%[inhibitor] | -14 | -10% | -8.3 | 13% | 11% | 8
COc1cccc(/C=N/NC(=O)C(=O)N/N=C/c2cccc(OC)c2OC)c1OC | 2%[15.4 µM] | -1 | -1.7% | 2.9 | -1% | 25% | 7
COc1ccccc1C(=O)Nc1ccc(N2CCCCC2)cc1 | 0% | -9 | -2.8% | 5.6 | -17% | 13% | 33
Fc1ccc2nc(Nc3ccccc3)sc2c1 | 1%[15.4 µM] | ? | 11µM* | -0.4 | -11% | 12% | 9
Cc1cc(/C([O-])=C(/C(=S)Nc2ccc(F)cc2)[n+]2ccccc2)c(C)n1Cc1ccccc1Cl | 1% | 3 | 0.0% | 1.4 | ? | -15% | 0
COc1cc(C(=O)NCC2CCCO2)ccc1OCc1ccc(Cl)cc1Cl (stereo not given) | -33%[15.4 µM] | -6 | . | . | -8% | . | 24
CCC(C)NCCCCOc1ccc(Cl)cc1C (stereo not given) | 21% | -2 | -3.9% | -1.4 | 19% | -35% | 7
CCCN(CC(=O)Nc1cc(Cl)ccc1Cl)C(=O)/C=C/c1cc(OC)ccc1OC | ? | . | ? | . | -22% | . | 19
NC(=S)N/N=C/c1cn(-c2ccccc2)nc1-c1cccnc1 | 2% | 0 | -1.5% | -0.1 | -13% | -3% | .
COc1ccccc1OS(=O)(=O)c1ccc(NC(C)=O)cc1 | 5%[15.4 µM] | -5 | . | -5.7 | -9% | -24% | -9
